Polio RdRp inh: poliovirus RNA polymerase inhibition. P03300. poliovirus polymerase elongation, fluorescence polarization; stronger effect = lower value. % elongation, % (compound at 16.7 µg/mL). actives 0.66% (n = 150,000); in the data active = % elongation below about 90%; also: some results filed as inactive read as strong as hits
Target sequence (P03300 1749-2209 limits assumed): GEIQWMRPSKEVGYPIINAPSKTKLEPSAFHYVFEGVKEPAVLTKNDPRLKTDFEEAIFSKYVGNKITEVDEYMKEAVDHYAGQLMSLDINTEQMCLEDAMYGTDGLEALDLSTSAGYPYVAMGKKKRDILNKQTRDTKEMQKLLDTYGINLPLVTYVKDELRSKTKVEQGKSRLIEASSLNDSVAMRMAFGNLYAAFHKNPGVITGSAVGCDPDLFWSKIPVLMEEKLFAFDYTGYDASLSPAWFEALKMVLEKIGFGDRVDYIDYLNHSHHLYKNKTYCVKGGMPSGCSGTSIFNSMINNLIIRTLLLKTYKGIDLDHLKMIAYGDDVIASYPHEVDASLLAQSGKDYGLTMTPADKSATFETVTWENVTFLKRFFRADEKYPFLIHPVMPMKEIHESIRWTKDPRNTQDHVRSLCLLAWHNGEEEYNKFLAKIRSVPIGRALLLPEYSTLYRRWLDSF
Polio RdRp inh intensity: also measured in Polio RdRp inh; calls as there; % elongation; measured here: total intensity read-out; formula for this scale not given here;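 total fluorescence in place of polarization; lower means less elongation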
An asterisk follows results filed as active. The list is partial. The share of hits here may be higher or lower than overall.

A first look (19 entries):
(1) Cc1ccc(N(Cc2cc3ccccc3[nH]c2=O)C(=O)c2cccc(Cl)c2)cc1
(2) CC(=O)Nc1ccc(NC(=O)CCSCCc2ccccn2)cc1
(3) COc1ccc(C(=O)Nc2cccc(OCc3cc(=O)n4c5c(sc4n3)CCCC5)c2)cc1
(4) COc1cc(C2CC(=O)N(c3ccccc3)C3=C2C(=O)OC3)cc(OC)c1OC (stereo not given)
(5) Cc1c(Cl)cccc1NC(=O)CC(c1ccc(F)cc1)N1Cc2ccccc2C1=O (stereo not given)
(6) Cc1cc(=O)[nH]c2nnc(SCc3ccc(Cl)cc3)n12
(7) O=C(Nc1cccc(C(=O)OCc2cc(=O)n3c4c(sc3n2)CCCC4)c1)c1ccc(Cl)cc1
(8) CC(C)(C)c1ccc(C(=O)Nc2cc(-c3ccccc3)nn2-c2ccccc2)cc1
(9) COCCCNC(=O)c1oc2c(c1C)-c1nn(Cc3ccccc3Cl)cc1CC2
(10) COc1ccc(Cl)cc1C(=O)NCCS(=O)(=O)N1CCN(c2ccccc2OC)CC1
(11) CCOc1ccccc1NC(=O)CSC1=Nc2ccccc2C2=NC(CC(=O)NC3CCCCC3)C(=O)N12 (stereo not given)
(12) O=C(COc1ccccc1F)Nc1ccc(OCc2cc(=O)n3ccccc3n2)cc1

Compound | 1 | 2 | 3 | 4 | 5 | 6 | 7 | 8 | 9 | 10 | 11 | 12
Polio RdRp inh | 120 | 107 | 104 | 107 | 100 | 102 | 106 | 111 | 102 | 106 | 115 | 98
Polio RdRp inh intensity | 122 | 99 | 105 | 105 | 109 | 95 | 105 | 114 | 99 | 112 | 117 | 99

(13) COc1cc(Cl)c(C)cc1NC(=O)Cn1ncc2c([nH]c3ccccc32)c1=O
(14) Cn1nc(C(=O)NCc2ccccc2)c2c1-c1ccccc1SC2
(15) O=C(NCc1ccco1)c1c[nH]c2ccc(S(=O)(=O)Nc3ccc(F)cc3F)cc2c1=O
(16) Cc1ccc(Cl)cc1N1CCN(Cc2nnc(-c3ccc4c(c3)OCO4)o2)CC1
(17) Cc1ccc(C(CC(=O)Nc2cc(C)cc(C)c2)N2Cc3ccccc3C2=O)cc1 (stereo not given)
(18) Cn1cccc1-c1cc2n(n1)CCC(=O)N2CC(=O)Nc1ccc(F)cc1Cl
(19) Cc1ccc(C2c3[nH]c4ccccc4c3CCN2C(=O)Nc2ccc(C)c(C)c2)cc1 (stereo not given)

Compound | 13 | 14 | 15 | 16 | 17 | 18 | 19
Polio RdRp inh | 101 | 111 | 105 | 108 | 103 | 110 | 107
Polio RdRp inh intensity | 108 | 113 | 103 | 113 | 105 | 115 | 112

Results, from the first entry:
(1) Cc1ccc(N(Cc2cc3ccccc3[nH]c2=O)C(=O)c2cccc(Cl)c2)cc1
(2) CC(=O)Nc1ccc(NC(=O)CCSCCc2ccccn2)cc1
(3) COc1ccc(C(=O)Nc2cccc(OCc3cc(=O)n4c5c(sc4n3)CCCC5)c2)cc1
(4) COc1cc(C2CC(=O)N(c3ccccc3)C3=C2C(=O)OC3)cc(OC)c1OC (stereo not given)
(5) Cc1c(Cl)cccc1NC(=O)CC(c1ccc(F)cc1)N1Cc2ccccc2C1=O (stereo not given)
(6) Cc1cc(=O)[nH]c2nnc(SCc3ccc(Cl)cc3)n12
(7) O=C(Nc1cccc(C(=O)OCc2cc(=O)n3c4c(sc3n2)CCCC4)c1)c1ccc(Cl)cc1
(8) CC(C)(C)c1ccc(C(=O)Nc2cc(-c3ccccc3)nn2-c2ccccc2)cc1
(9) COCCCNC(=O)c1oc2c(c1C)-c1nn(Cc3ccccc3Cl)cc1CC2
(10) COc1ccc(Cl)cc1C(=O)NCCS(=O)(=O)N1CCN(c2ccccc2OC)CC1

Compound | 1 | 2 | 3 | 4 | 5 | 6 | 7 | 8 | 9 | 10
Polio RdRp inh | 120 | 107 | 104 | 107 | 100 | 102 | 106 | 111 | 102 | 106
Polio RdRp inh intensity | 122 | 99 | 105 | 105 | 109 | 95 | 105 | 114 | 99 | 112

(11) CCOc1ccccc1NC(=O)CSC1=Nc2ccccc2C2=NC(CC(=O)NC3CCCCC3)C(=O)N12 (stereo not given)
(12) O=C(COc1ccccc1F)Nc1ccc(OCc2cc(=O)n3ccccc3n2)cc1
(13) COc1cc(Cl)c(C)cc1NC(=O)Cn1ncc2c([nH]c3ccccc32)c1=O
(14) Cn1nc(C(=O)NCc2ccccc2)c2c1-c1ccccc1SC2
(15) O=C(NCc1ccco1)c1c[nH]c2ccc(S(=O)(=O)Nc3ccc(F)cc3F)cc2c1=O
(16) Cc1ccc(Cl)cc1N1CCN(Cc2nnc(-c3ccc4c(c3)OCO4)o2)CC1
(17) Cc1ccc(C(CC(=O)Nc2cc(C)cc(C)c2)N2Cc3ccccc3C2=O)cc1 (stereo not given)
(18) Cn1cccc1-c1cc2n(n1)CCC(=O)N2CC(=O)Nc1ccc(F)cc1Cl
(19) Cc1ccc(C2c3[nH]c4ccccc4c3CCN2C(=O)Nc2ccc(C)c(C)c2)cc1 (stereo not given)
(20) CCOC(=O)c1sc2nc(C)n(CC(=O)Nc3cccc(Cl)c3)c(=O)c2c1C

Compound | 11 | 12 | 13 | 14 | 15 | 16 | 17 | 18 | 19 | 20
Polio RdRp inh | 115 | 98 | 101 | 111 | 105 | 108 | 103 | 110 | 107 | 105
Polio RdRp inh intensity | 117 | 99 | 108 | 113 | 103 | 113 | 105 | 115 | 112 | 110

(21) Cc1cccc(NC(=O)Cn2nnc(-c3nc(-c4ccncc4)no3)c2N)c1
(22) CCCNc1nc(NCc2ccccc2OC)c2cnn(C)c2n1
(23) Cc1ccc2c(c1)cc1c(=O)n(Cc3cccc(Cl)c3)nc(C)n12
(24) Cc1ccc(N2CCN(C(=O)c3c(C)oc4ncn(C)c(=O)c34)CC2)c(C)c1
(25) CC1CCN(c2nc3c(-c4cccc(Br)c4)nnn3c3ccccc23)CC1
(26) Cc1ccc(NC(=O)Cn2c(=O)n(Cc3nc(-c4ccccc4)no3)c(=O)c3cc4c(cc32)OCO4)cc1F
(27) CCc1cccc(NC(=O)CCc2nc3cccnc3n2Cc2ccc(OC)cc2)c1
(28) Cc1cc2oc(C(=O)Nc3cccc(-c4nc5ccccc5o4)c3)c(C)c2cc1Cl
(29) CCc1ccccc1NC(=O)Cn1nnc(C(=O)OC)c1C(=O)OC
(30) CCc1ccc(NC(=O)CSc2nc3ccccc3c(=O)n2CCC(=O)NC2CCCCC2)cc1

Compound | 21 | 22 | 23 | 24 | 25 | 26 | 27 | 28 | 29 | 30
Polio RdRp inh | 114 | 107 | 111 | 111 | 106 | 105 | 105 | 108 | 111 | 98
Polio RdRp inh intensity | 109 | 110 | 114 | 110 | 110 | 108 | 109 | 110 | 111 | 105

(31) O=C(NCCSCc1ccccc1Cl)C1CCN(S(=O)(=O)Cc2ccccc2)CC1
(32) COc1ccc(-c2noc(-c3ccc(NC4CCCCC4)c([N+](=O)[O-])c3)n2)cc1
(33) Cc1ccc2nc(Cl)c3cc(C(=O)N(C)C4CCCCC4)sc3c2c1
(34) COc1ccc(-c2noc(CSc3nnc(-c4ccncc4)n3-c3ccc(OC)cc3)n2)cc1
(35) COc1cccc(-c2nnc(-c3cc4cc(Cl)ccc4oc3=O)o2)c1
(36) Cc1ccc(N2CCn3c2nc2c3c(=O)n(CCCc3ccccc3)c(=O)n2C)cc1C
(37) Cc1cccc(-n2cc(-c3ccccc3)c3c(NC4CCCC4)ncnc32)c1
(38) Cc1ccc(C)c(NC(=O)CCn2cnnn2)c1
(39) CCOC(=O)C1CCN(C(=O)Cn2ncc3c4ccccc4n(C)c3c2=O)CC1
(40) O=c1oc2ccccc2n1CCCOc1ccccc1Cl

Compound | 31 | 32 | 33 | 34 | 35 | 36 | 37 | 38 | 39 | 40
Polio RdRp inh | 104 | 112 | 101 | 103 | 105 | 113 | 100 | 104 | 107 | 102
Polio RdRp inh intensity | 108 | 115 | 97 | 95 | 104 | 112 | 97 | 97 | 109 | 103

(41) CCSc1ncc(Cl)c(C(=O)Nc2nc3ccc(Cl)cc3s2)n1
(42) CC(=O)c1cc(C(=O)Nc2cccc(C)c2)c2ccccn12
(43) Cc1nn(C(=O)c2ccccc2)c(C)c1S(=O)(=O)N1CCCCCC1
(44) COc1cc(C2CC(=O)Nc3c2c(C)nn3-c2nc(C)cc(C)n2)cc(OC)c1O (stereo not given)
(45) CCOc1ccc(NC(=O)Cn2cc(S(=O)(=O)c3ccc(C)cc3)c(=O)c3cc(F)ccc32)cc1
(46) COc1ccc(CNC(=O)CSc2n[nH]c(-c3ccc(F)cc3)n2)cc1
(47) O=C(NCCSc1c(-c2ccccc2)[nH]c2ccccc12)c1ccc(S(=O)(=O)N2CCOCC2)cc1
(48) CCc1ccccc1Nc1nn2c(=O)c3ccc(C(=O)NC4CCC(C)CC4)cc3nc2s1 (stereo not given)
(49) COc1cccc(CNS(=O)(=O)c2ccc3c(c2)CC(C)N3C(=O)C2CCC2)c1 (stereo not given)
(50) O=C(/C=C\c1ccc2c(c1)OCO2)NC1CC(=O)N(c2cccc(F)c2)C1 (stereo not given)

Compound | 41 | 42 | 43 | 44 | 45 | 46 | 47 | 48 | 49 | 50
Polio RdRp inh | 110 | 109 | 108 | 106 | 113 | 105 | 108 | 103 | 107 | 113
Polio RdRp inh intensity | 94 | 111 | 112 | 111 | 110 | 101 | 111 | 103 | 113 | 110

(51) COc1ccccc1N1CCN(C(=O)c2cnc(N3CCOCC3)c3ccccc23)CC1
(52) COc1ccccc1C(=O)N(Cc1ccco1)Cc1ccccc1F
(53) COc1cc(OC)c(OC)cc1/C=C/c1nc2cc3ccccc3cc2c(=O)n1-c1ccc(F)c(Cl)c1
(54) Cc1ccc(C)c(N2CCN(C(=O)c3ccc4c(Cl)c5c(nc4c3)CCCC5)CC2)c1
(55) CCOc1ccc(Nc2cc(C)c(C#N)c3nc4ccccc4n23)cc1
(56) COc1ccc(OC)c(NC(=O)N2CCC3(CC2)Oc2ccccc2C(=O)N3Cc2ccccc2F)c1
(57) CCOc1ccc2nc(N3CCCC(C(=O)NCCc4ccc(OC)cc4OC)C3)sc2c1 (stereo not given)
(58) Cc1cc(C)c(S(=O)(=O)NCC(c2ccco2)N2CCOCC2)c(C)c1 (stereo not given)
(59) COc1ccc(N2CC(NC(=O)c3ccc(S(=O)(=O)N4CCCC4)cc3)CC2=O)cc1 (stereo not given)
(60) CCc1cccc(C)c1NC(=O)c1cc(S(=O)(=O)N(Cc2ccc(C(=O)OC)cc2)Cc2ccc(OC)c(OC)c2)ccc1F

Compound | 51 | 52 | 53 | 54 | 55 | 56 | 57 | 58 | 59 | 60
Polio RdRp inh | 106 | 101 | 117 | 109 | 105 | 107 | 112 | 107 | 105 | 111
Polio RdRp inh intensity | 111 | 106 | 113 | 110 | 109 | 109 | 113 | 109 | 85 | 104

(61) CC(C)c1nn2c(=O)cc(COC(=O)COc3ccccc3F)nc2s1
(62) COCCNC(=O)c1ccc(-c2nc(CN3CCc4ccccc43)c(C)o2)cc1
(63) Cc1ccc(NC(=O)C2CCC(CNS(=O)(=O)c3cccs3)CC2)cc1C (stereo not given)
(64) Cc1cccc(CNS(=O)(=O)c2ccc(-c3cnc(C4CC4)o3)cc2)c1
(65) CC(C)N(Cc1ccccc1)C(=O)CCS(=O)(=O)c1ccc2c(c1)oc(=O)n2C
(66) CCOc1ccc(Br)cc1CNCCSc1nnnn1-c1ccccc1
(67) CCOc1ccccc1NC(=O)CN1C(=O)COc2ccc(S(=O)(=O)Nc3ccccc3)cc21
(68) CCOC(=O)C1(C)C=C(Nc2cccc(C(=O)O)c2)C(=O)N1c1ccccc1 (stereo not given)
(69) CCOc1ccccc1NC(=O)CN1CCCN(Cc2cccc(Cl)c2)S1(=O)=O
(70) COc1cccc(NC(=O)CSc2ncc3c(n2)-c2ccc(Cl)cc2N(C)S3(=O)=O)c1

Compound | 61 | 62 | 63 | 64 | 65 | 66 | 67 | 68 | 69 | 70
Polio RdRp inh | 111 | 107 | 101 | 105 | 99 | 105 | 109 | 114 | 106 | 102
Polio RdRp inh intensity | 111 | 104 | 108 | 107 | 91 | 106 | 116 | 115 | 103 | 112

(71) O=c1[nH]c(SCc2ccc([N+](=O)[O-])cc2)nc2c1CCCC2
(72) Cc1c(C(=O)NCC(c2ccc(Cl)cc2)N2CCOCC2)oc2ccccc12 (stereo not given)
(73) Cc1ccc(Cl)cc1N1CCN(C(=O)c2cn(CC(C)C)c(=O)c3c2c2ccccc2n3C)CC1
(74) CCc1ccc(-c2csc(-c3cc4cc(Br)ccc4oc3=O)n2)cc1
(75) Cc1ccc(NC(=O)C2=CC(c3cccs3)=NS(=O)(=O)N2C)cc1
(76) CCOc1ccc(C(=O)NCc2nc3cccnc3n2Cc2ccc(F)cc2)cc1OCC
(77) Cc1ccc(NC(=O)Cn2c(=O)n(CC(=O)NCCc3ccccc3)c(=O)c3ccccc32)cc1
(78) CCC1CCc2nc3sc(C(=O)Nc4ccc(F)c(Cl)c4)c(N)c3cc2C1 (stereo not given)
(79) Cc1ccc(OCC(=O)Nc2nnc(SCc3cc(=O)n4cccc(C)c4n3)s2)cc1
(80) O=C(NC1(C(F)(F)F)C(=O)Nc2c1c(=O)[nH]c(=O)n2-c1ccc(Cl)cc1)c1ccccc1F (stereo not given)

Compound | 71 | 72 | 73 | 74 | 75 | 76 | 77 | 78 | 79 | 80
Polio RdRp inh | 109 | 104 | 111 | 120 | 106 | 112 | 106 | 111 | 110 | 101
Polio RdRp inh intensity | 107 | 110 | 112 | 123 | 107 | 115 | 108 | 111 | 116 | 93

(81) Cc1cnc2c(c1SCC(=O)N(C)c1ccccc1)c(=O)n(C)c(=O)n2C
(82) Cc1ccc(S(=O)(=O)c2cnc(SCC(=O)Nc3cccc(Cl)c3)nc2N)cc1C
(83) CC(=O)Nc1ccc(NC(=O)c2ccc3c(c2)CCN3S(=O)(=O)c2ccc(C)cc2)cc1
(84) COc1ccc(-c2[nH]c3c(c2-c2c(-n4cccc4)n(C)c(=O)n(C)c2=O)c(=O)n(C)c(=O)n3C)cc1

Compound | 81 | 82 | 83 | 84
Polio RdRp inh | 112 | 105 | 108 | 109
Polio RdRp inh intensity | 108 | 106 | 111 | 112

Bioassay records: PubChem, ICCB-Longwood Screening Facility, Harvard Medical School
